Compound activity: PubChem BioAssay, several laboratories
RGS16-Gao = RGS16-Galphao interaction regulator (human) | bead-based flow cytometry RGS16-Galphao binding, fluorescence; actives lie on both sides | binding response (% of control), % at 10 µM | hit rate 0.38% among 220,000 | O15492+P09471;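 active means below 25% or above 175%, edge rows of some plates excepted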;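 further: Galphao activated by GDP with aluminum fluoride before binding; 100% = wells without compound and 0% = beads without RGS; some results beyond the cut were filed as inactive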
Target sequence (O15492 whole entry, looked up): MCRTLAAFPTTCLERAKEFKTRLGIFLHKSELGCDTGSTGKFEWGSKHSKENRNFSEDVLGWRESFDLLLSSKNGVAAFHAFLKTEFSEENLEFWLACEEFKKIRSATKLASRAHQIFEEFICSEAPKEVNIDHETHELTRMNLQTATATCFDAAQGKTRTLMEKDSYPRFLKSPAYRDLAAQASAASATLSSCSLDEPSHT
Target sequence (P09471 whole entry, looked up): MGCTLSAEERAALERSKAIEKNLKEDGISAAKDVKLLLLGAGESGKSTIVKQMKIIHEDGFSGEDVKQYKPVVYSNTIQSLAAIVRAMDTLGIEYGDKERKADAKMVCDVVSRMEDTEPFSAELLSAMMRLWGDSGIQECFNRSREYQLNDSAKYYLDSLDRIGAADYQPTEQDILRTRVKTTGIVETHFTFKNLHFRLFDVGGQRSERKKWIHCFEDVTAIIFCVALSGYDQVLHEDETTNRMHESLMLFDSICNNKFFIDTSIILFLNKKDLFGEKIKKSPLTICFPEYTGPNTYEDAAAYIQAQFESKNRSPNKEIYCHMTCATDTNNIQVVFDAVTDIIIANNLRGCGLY
HSV augment = HSV replication enhancement | AID 1956 | maximum fold increase | HSV replication augmentation in cells, fold increase | hit rate 0.005% among 220,000;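 active means peak rise of 1.5-fold or more in the series; inconclusive means self-fluorescent or not available for retest; tested in PC3 cells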;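 further: first round at 10 µM; read as green reporter fluorescence; hits show the peak of a series up to 25 µM; 1 = signal of infected wells without compound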
PKD1 inh = inhibitors of human PKD1 kinase | inhibition, %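 (about 10 µM by stock and volumes)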 | PKD1 kinase fluorescence polarization assay | hit rate 0.056% among 200,000 | Q15139;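 active means inhibition of 50% or more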;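 further: controls were vehicle for no effect and a reference inhibitor for full effect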
Insulin prom inh = TRM-6 insulin promoter activity inhibition; TRM-6 cells (human fetal islet line), insulin promoter-eGFP reporter, imaging; reporter expression induced with tamoxifen; inhibition, % at 2 µM; hit rate 0.9% among 130,000; AID 1273;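 active means inhibition above the mean plus 3 SD, with well images judged a real hit on visual review, cut at about 60% in these data, passing the limit was not always enough; inconclusive means inhibition over the cutoff but images rejected on review; inactive means inhibition not above the cutoff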
GALR2 ag = agonists of human galanin receptor 2 (GALR2) | GALR2-expressing cells, agonist activation read-out | activation, %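 (tested at 5 µM)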 | hit rate 0.48% among 140,000 | AID 803;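 active means above mean plus 3 SD of all compounds, about 5% in these data, not always enough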;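 further: 0% = vehicle buffer wells and 100% = reference agonist at full effect; tested in CHO reporter cells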
Target sequence (O43603 whole entry, looked up): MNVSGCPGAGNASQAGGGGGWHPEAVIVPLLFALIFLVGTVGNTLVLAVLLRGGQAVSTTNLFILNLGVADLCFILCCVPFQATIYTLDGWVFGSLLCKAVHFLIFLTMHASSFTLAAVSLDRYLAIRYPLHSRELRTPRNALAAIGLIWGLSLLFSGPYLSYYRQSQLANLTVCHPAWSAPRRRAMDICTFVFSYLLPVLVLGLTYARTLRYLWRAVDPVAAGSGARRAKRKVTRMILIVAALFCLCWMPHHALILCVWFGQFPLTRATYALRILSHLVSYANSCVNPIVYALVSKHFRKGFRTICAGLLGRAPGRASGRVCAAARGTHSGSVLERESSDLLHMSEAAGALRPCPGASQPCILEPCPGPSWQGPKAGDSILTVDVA
Insulin prom inh cell count = recorded beside Insulin prom inh, whose call it bears; normalized cell count, %; measured here: cell count, toxicity; reference of the scale not given here;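 cells exposed to compound for 48 h; stained nuclei by imaging scaled within each plate; lower means fewer cells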
HSV augment primary fold = also measured in HSV augment; calls as there; fold increase; compound at 10 µM; measured here: primary screen fold increase 10 uM; tested in PC3 cells;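 GFP signal in the first replicate; 1 = infected wells without compound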
Active calls of the source: *; i = inactive; ? = inconclusive; . = no result given.

SMILES	RGS16-Gao	HSV augment	HSV augment primary fold	PKD1 inh	Insulin prom inh	Insulin prom inh cell count	GALR2 ag
CC(C)(C)c1cc(NC(=O)CCSc2nnc3ccccn23)cc(C(C)(C)C)c1	105	i	0.87	-5	-206	47	-0.9
N/C(=N\OC(=O)N1CCOCC1)c1ccccc1	105	i	1.1	-7	.	.	-2.2
COc1cccc(-c2cnc(OC(C)(C)C)nc2OC(C)(C)C)c1	96	.	.	-11	49	83	-1.9
N=c1c2c(-c3ccccc3)c(-c3ccccc3)oc2ncn1CCCN1CCOCC1	99	i	0.95	-3	.	.	0.7
COc1ccc(-c2nn(-c3ccccc3)cc2CNC(=O)c2cccc([N+](=O)[O-])c2)cc1	96	i	0.92	6	.	.	-2.1
CS(=O)(=O)N(CC(=O)NCCSCc1ccco1)c1ccc2c(c1)OCO2	120	i	0.97	2	.	.	.
CC1CCCC(C)N1C(=O)CSCc1ccc(Cl)cc1 (stereo unspecified)	105	i	0.94	-2	-21	100	-0.5
COc1ccc(C2CCCN2C(=S)Nc2cccc(C)c2)cc1OC (stereo unspecified)	99	i	0.92	-8	.	.	.
Cc1cc(N2CCN(S(=O)(=O)c3ccc(Br)cc3)CC2)n2ncnc2n1	100	i	0.93	7	-23	24	.
CCOC(=O)n1c(=O)n(Cc2ccc(F)cc2)c2ccccc21	208	i	0.89	-2	22	83	.
Cc1ccc(-n2c(=O)[nH]c3c(C(N)=O)nc(-c4ccc(C)o4)nc32)cc1	98	.	.	22	14	143	-3.0
COCCNc1nnc(SCC(=O)NNC(=O)c2ccccc2)s1	100	i	1.1	-11	17	63	.
O=C(NC1CCCCC1)c1cnn2c(C(F)(F)F)cc(-c3ccco3)nc12	94	i	1	-7	.	.	0.9
Cc1csc(NC(=O)CN2C(=O)c3ccccc3C2=O)c1C(N)=O	116	i	0.9	.	.	.	.
CNCCCOc1cc(C)cc(C)c1C	105	i	0.9	1	.	.	.
Nc1o[nH]c(=O)c1Cc1ccccc1	103	i	0.88	.	.	.	.
CN(C)S(=O)(=O)c1c(Cl)cccc1Cl	102	i	0.66	-2	63	117	-0.7
COC(=O)CCCCCN1C(=O)NC(c2ccc(-c3ccccc3)cc2)C(C(=O)OCc2ccccc2)=C1C (stereo unspecified)	108	i	0.98	-5	30	80	-1.4
CCOc1ccc(OCC)c(NC(=O)CN2CCN(c3cccc(C)c3C)CC2)c1	101	i	0.98	7	19	104	0.0
Cc1nnc(SCCn2c(N3CCCC(C)C3)nc3c2c(=O)[nH]c(=O)n3C)s1 (stereo unspecified)	99	i	1	-13	.	.	-2.8
COc1cc(CNC(=O)CCCC/C=C\C(C)C)ccc1O	102	i	0.83	.	.	.	.
CCCCOP(=O)(OCCCC)C1(NS(=O)(=O)c2ccccc2)C=CC(=O)c2ccccc21 (stereo unspecified)	100	i	1.1	-5	-7	131	-2.6
COc1ccc(N(CCCN2C(=O)c3cccc4cccc(c34)C2=O)C(=O)c2cccnc2)cc1	102	i	0.78	-7	-5	121	.
Cc1cccc(N2C(=O)CC(NNc3nc4ccccc4s3)C2=O)c1 (stereo unspecified)	93	i	0.99	-5	48	98	0.3
O=C(OCCN1C(=O)c2ccccc2C1=O)c1cc(S(=O)(=O)N2CCOCC2)ccc1F	99	i	0.93	-1	-3	63	-1.7
CCOC(=O)N1CCN(C(=S)NC2CCCCC2)CC1	101	i	0.93	-9	.	.	-0.7
COc1cccc(-c2noc(CCCC(=O)Nc3ccc(C(N)=O)cc3)n2)c1	103	i	0.99	6	43	155	.
N#C/C(=C/c1cn(CC(=O)O)c2ccccc12)C(=O)Nc1ccccc1	94	i	1.1	-2	11	71	.
OCCOCCOc1ccc(-c2nn[nH]n2)cc1	103	i	1	2	19	131	.
CCC(OC(=O)c1cc2sccc2n1C)C(=O)NCc1ccco1 (stereo unspecified)	105	i	0.93	-6	.	.	-2.2
CCCCC(=O)Nc1nnn(CCC)n1	102	i	0.75	-7	-144	68	-1.1
CN(Cc1cccc2cnccc12)C(=O)CCc1nnc(CCc2ccccc2)o1	98	i	0.98	1	.	.	.
CC(C)(C)n1nnnc1CN1CCN2CCCC2C1 (stereo unspecified)	101	i	0.98	-3	5	56	0.1
CCOC(=O)c1c(/N=C/c2cccc([N+](=O)[O-])c2O)sc(C)c1C	83	i	1.1	-1	41	98	-2.1
CCCCOc1ccc(CN2CCCCC2)cc1	96	i	0.95	-10	-30	70	-1.5
CN(C)C(=O)COc1ccc2cc(-c3ccccc3)c(=O)oc2c1	102	i	0.92	6	27	97	-0.9
COc1ccc(OCC(=O)Nc2ccc(C)cc2)cc1	99	i	0.96	-1	-21	156	-0.8
O=C(CSc1nccn1-c1ccccc1)N1CCc2ccccc21	101	i	0.99	-10	25	165	0.2
Cn1nc(-c2ccccc2)cc1NC(=O)c1cccs1	108	i	0.99	.	.	.	.
CCOc1ccc(NC(=O)N2CCCC2C(=O)NCC2CCCO2)cc1 (stereo unspecified)	99	i	0.87	-3	.	.	.

Quoted at random: two records from the list.
SMILES	RGS16-Gao	HSV augment	HSV augment primary fold	PKD1 inh	Insulin prom inh	Insulin prom inh cell count	GALR2 ag
CN(Cc1cccc2cnccc12)C(=O)CCc1nnc(CCc2ccccc2)o1	98	i	0.98	1	.	.	.
CCOC(=O)c1c(/N=C/c2cccc([N+](=O)[O-])c2O)sc(C)c1C	83	i	1.1	-1	41	98	-2.1

Back to the main list; the seven compounds before the break are reprinted first.
SMILES	RGS16-Gao	HSV augment	HSV augment primary fold	PKD1 inh	Insulin prom inh	Insulin prom inh cell count	GALR2 ag
CCOC(=O)c1c(/N=C/c2cccc([N+](=O)[O-])c2O)sc(C)c1C	83	i	1.1	-1	41	98	-2.1
CCCCOc1ccc(CN2CCCCC2)cc1	96	i	0.95	-10	-30	70	-1.5
CN(C)C(=O)COc1ccc2cc(-c3ccccc3)c(=O)oc2c1	102	i	0.92	6	27	97	-0.9
COc1ccc(OCC(=O)Nc2ccc(C)cc2)cc1	99	i	0.96	-1	-21	156	-0.8
O=C(CSc1nccn1-c1ccccc1)N1CCc2ccccc21	101	i	0.99	-10	25	165	0.2
Cn1nc(-c2ccccc2)cc1NC(=O)c1cccs1	108	i	0.99	.	.	.	.
CCOc1ccc(NC(=O)N2CCCC2C(=O)NCC2CCCO2)cc1 (stereo unspecified)	99	i	0.87	-3	.	.	.
O=C1C2=C(CCCC2)C(=O)N1CNc1ccccc1	97	i	0.9	.	.	.	.
COC(=O)N/N=C(\C)c1ccc(OC(F)F)cc1OC(F)F	102	i	1.1	1	.	.	-0.6
COCc1cc(=O)n2[nH]c(-c3cccc(Br)c3)cc2n1	88	i	1.1	0	.	.	0.0
C/C(=N\Nc1ccc([N+](=O)[O-])cc1)c1ccc(N)cc1	106	i	1.1	10	6	68	-2.4
CC(C)CNS(=O)(=O)c1ccc(S(=O)(=O)N2CCCN(Cc3ccccc3)C2)cc1	79	i	0.81	-18	.	.	-2.3
Cn1c(SCCOc2ccccc2Cl)nnc1-c1ccncc1	101	i	0.91	2	i	56	-1.4
CNc1nc(SCC(=O)OC)nc(N2CCOCC2)n1	102	i	0.75	-6	-22	81	0.2
C=CCNC(=S)N1CCc2c([nH]c3ccccc23)C1C (stereo unspecified)	96	i	0.97	4	.	.	.
CC(=O)N1CCc2ccccc2C1CC(=O)O (stereo unspecified)	97	i	1	3	29	66	.
COCc1nnc(NC(=O)CCSc2ccccc2)s1	101	i	0.76	7	-3	113	-0.8
CCOc1ccc(NC(=O)N2CCC(n3c(=O)[nH]c4ccccc43)CC2)cc1	115	i	0.87	-8	.	.	.
Cc1nc2ccc(S(=O)(=O)Nc3cccc(-c4nc5cccnc5s4)c3C)cc2s1	102	i	1	-2	17	92	-2.6
C[n+]1nc(Nc2ccccc2)sc1-c1ccc(C(=O)O)cc1	100	i	0.91	.	.	.	.
O=C(Nc1nccs1)c1ccc(Cl)cc1[N+](=O)[O-]	103	i	0.99	5	33	86	-2.6
CCOc1c(S(=O)(=O)N2CCCC2)ccc(Cl)c1Cl	-2	i	0.8	-6	38	164	-0.9
O=C(NC1CC1)c1cc2c(s1)CS(=O)(=O)C2	101	i	1	-2	.	.	.
COc1ccc(OC)c(NC(=O)CCNC(=O)Cn2cnc3ccccc3c2=O)c1	106	i	0.98	3	.	.	.
O=C(Nc1nnc(Cc2ccc(Cl)cc2)s1)c1ccco1	101	i	0.82	-9	36	30	1.6
COc1ccc([N+](=O)[O-])cc1NC(=O)c1cn(-c2ccc(C)c(C)c2)c(=O)c2ccccc12	101	i	0.93	-9	-26	103	-0.6
CC(=O)N1c2c(cc(Br)cc2S(=O)(=O)NCc2ccc3c(c2)OCO3)CC1C (stereo unspecified)	107	i	0.88	-4	-12	98	-0.9
Cc1ccc(S(=O)(=O)CCc2ccccn2)cc1	100	i	1	-5	56	179	-4.6
CSc1n[nH]c(NC2=CC(=O)CCC2)n1	103	i	1	-6	.	.	-0.7
Cc1cc(C(F)F)n2ncc(C(=O)N3CCc4ccccc4C3)c2n1	105	i	0.91	-4	0	183	-1.0
CC1CCCC(C)N1NC(=O)c1cccc(S(=O)(=O)N2CCc3ccccc32)c1 (stereo unspecified)	101	i	1	-4	33	105	.
O=C(Oc1ccccc1N1C(=O)C2CCCCC2C1=O)c1ccccc1 (stereo unspecified)	130	.	.	-8	-39	129	-3.2
O=C(NCCc1ccccc1)C1CCCN(S(=O)(=O)c2cccc3nonc23)C1 (stereo unspecified)	104	i	0.81	-1	-29	102	-0.8
COc1cccc(-c2nnc(SCCC(=O)O)n2C)c1	103	i	1	-17	.	.	-1.2
FC(F)(F)c1cc(-c2ccco2)nc(NCc2ccco2)n1	106	i	1	-4	-29	92	0.8
Cn1cnnc1SCC(=O)Nc1sc2c(c1C(N)=O)CCC2	102	i	1.1	-2	21	75	-3.7
Cc1ccc(-n2ncc3c(NCCCN4CCCC4=O)ncnc32)c(C)c1	102	i	0.92	-4	-28	102	-0.7
CCOc1ccc(C(=O)N/N=C(\c2ccccc2)c2ccccn2)cc1	6	?	.	4	-29	62	0.4
O=C(O)CSc1ncnc2sc(-c3ccccc3)cc12	98	i	1	-3	.	.	.
Cc1ccn2c(CNCCn3nc(C)cc3C)c(C(=O)N3CCCCCC3)nc2c1	89	i	1	2	.	.	.
Cc1ccc(C(=O)CSc2nnc(CNc3nc(-c4ccccc4)cs3)n2C)cc1	98	i	1	-3	-68	104	-4.0
Cc1cc(NCc2ccccc2)n2ncnc2n1	99	i	1	-9	.	.	.
O=C(Nc1ccc2c(c1)OCCO2)C1CCN(S(=O)(=O)c2cccs2)CC1	97	i	0.93	-2	-64	95	-0.1
COc1ccc(CCNC(=O)C(=O)NCc2ccc(Cl)cc2)cc1OC	103	i	0.98	-1	-27	68	.
CCC/C(O)=C1\C(=O)CCCC1=NCCc1c(C)[nH]c2ccc(C)cc12	97	i	0.92	.	.	.	.
CCOC(=O)C1CCN(c2ncnc3c(C)csc23)CC1	100	i	0.91	.	.	.	.
COc1ccc(S(=O)(=O)N2C3CCC2CC(NC(=O)C2CC2)C3)cc1 (stereo unspecified)	113	i	1	-5	6	106	-3.0
NC(=O)CSc1nnc(-c2ccccn2)n1N	103	i	0.8	.	.	.	.
COc1ccc(-n2c(-c3cccc(OC)c3)nc(=S)c3c2CCCC3)cc1	106	i	0.9	0	.	.	-0.8
O=C(CCCc1ccccc1)c1ccc2c(c1)OCCO2	103	i	0.98	-5	37	114	-1.7
COc1cccc(N2CCN(c3ncnc4c3[nH]c3ccc(F)cc34)CC2C)c1 (stereo unspecified)	104	i	0.6	-7	50	70	-2.4
COc1cccc(C2c3[nH]c4ccccc4c3CCN2Cc2cccn2-c2ncccn2)c1 (stereo unspecified)	102	i	0.87	-2	22	165	.
CC1(C)CN(c2cccc(C#N)c2)C1=O	103	i	0.93	-3	7	107	.
CC1C(c2ccccc2)N(C)C(c2ccccc2)CC1(O)c1ccc(F)cc1 (stereo unspecified)	98	i	0.93	0	.	.	.
CN1CCN(CCNC(=O)c2cc3c(=O)n(C)c4ccccc4c3n2C)CC1	101	i	0.84	-13	.	.	-4.6
Fc1nc(N2CCCC2)c(F)c(Oc2ccccc2Oc2c(F)c(F)nc(N3CCCC3)c2F)c1F	91	i	0.76	-5	-32	117	-2.1
Cn1c(SCC(=O)c2ccc(F)cc2)nnc1-c1cnccn1	97	i	0.93	-10	.	.	0.3
CS/C(N)=N/N=C/c1cc(C)ccc1O	110	i	0.9	.	.	.	.
